Menin MLL FP FL: inhibitors of human menin-MLL interaction, wild-type MLL peptide | FP activity change, % at 61.4 µM | AID 1766 | Fluorescence polarization, fluorescein-MLL peptide displacement from menin | 290,000 tested, under 10 active; inconclusive = falling polarisation curve, or a change in total fluorescence; inactive = total fluorescence flat and polarisation flat or rising; no compound was filed as active; the % refers to the polarisation; negative = inhibition;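 further: % of control where 0% means no effect; inhibitors lower the polarisation; unlabelled MLL peptide was the positive control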
Sfp inh: inhibitors of Bacillus subtilis Sfp phosphopantetheinyl transferase | Biochemical Sfp PPTase activity, qHTS | actives 3.5% (n = 310,000) | Potency, µM, for inactives: max response, negative = inhibition, actives largely listed as inhibitors | Q9F4F7; active means well fitted inhibition curve with a large enough effect; inconclusive means small, poorly fitted or top-dose-only effect, or another doubt; inactive means no such curve, though single readings can be large or run the other way;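 further: the enzyme is Sfp with the accession as filed and its product quenches rhodamine fluorescence; potency means the concentration at half of the fitted maximal effect; 0% = enzyme reaction without inhibitor and -100% = no enzyme wells; top concentration of the series not given in the record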
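Reaction rates are the 30-min fluorescence difference (ex 525, em 598 nm) in wells containing 15 nM Sfp, 5 uM rhodamine-CoA and 12.5 uM BHQ-2-YbbR at pH 7.6 with 10 mM MgCl2.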
gsp antagonist: antagonizes gsp, the McCune-Albright syndrome mutation; gsp-mutant cells, cAMP HTRF, 30 min; control for the full effect not named in the record; Potency, µM (series often up to 76.9 µM), for inactives: at the top dose activity change, negative = inhibition, usual class: inhibitors; actives 0.4% (n = 340,000); active = falling curve of any shape with a large fitted effect; inconclusive = falling curve, mostly with a smaller effect; inactive = flat or rising curve; cell line not stated here;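 further: intracellular cAMP measured with PDE inhibitor Ro 20-1724 present during compound exposure; potency means the concentration at half of the fitted maximal effect; on the % scale 0 is the no-effect control and ±100 the full control effect; nearly all actives have a fitted effect of over 65% in size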
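HTRF cAMP read-out (cAMP-d2 plus anti-cAMP antibody-K in lysis buffer, 30 min RT). Before lysis, cells are exposed to compounds with […] for 30 min at 37C in DPBS containing Ca/Mg, BSA and Tween 20.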
CtBP-E1A blk: blocks the CtBP interaction with E1A; AlphaScreen GST-E1A/His-CtBP binding, 1536-well; stronger effect = lower value; control for the full effect not named in the record; activity change, % (concentration not given with the values); actives 0.49% (n = 340,000); in the data active means activity change below about -65%; inconclusive means about -30% to -65%; inactive means above about -30%; further: on the % scale 0 is the no-effect control and ±100 the full control effect
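In 5 uL wells, 23 nL compound meets equimolar GST-E1A and His-CtBP (5X stock 125 nM each) for 2 h, 37 °C. Beads (5X, 50 ug/mL) then 1 h, 37 °C, dark.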
gsp agonist: agonists of gsp mutant (McCune-Albright syndrome); gsp mutant cells, cAMP HTRF, 30 min; control for the full effect not named in the record; Potency, µM (titrated, usually from 76.9 µM), for inactives: at the highest dose activation (cAMP increase), actives largely listed as activators; actives 0.13% (n = 340,000); active = well fitted activation curve with a large enough effect; inconclusive = small, poorly fitted or top-dose-only effect, or another doubt; inactive = no such curve, though single readings can be large or run the other way; cell line not stated here;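 further: phosphodiesterase inhibitor Ro 20-1724 added with compounds to block cAMP breakdown; potency means the concentration at half of the fitted maximal effect; nearly all actives have a fitted effect of over 60% in size; about a fifth of the inactives were tested at one dose only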
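Cells stably selected in G418 were plated at 2000/well, grown 16-24 hr, then given compounds in DMSO with the PDE inhibitor […] (300 uM solution added) for 30 min at 37C; cAMP was read by HTRF.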
ClpP mod: qHTS Assay for Activators of ClpP; purified B. subtilis ClpP, FRET peptide cleavage, 20 min; Potency, µM (titrated, usually from 57.5 µM), for inactives: at the highest dose activity change, negative = active; actives 1.9% (n = 340,000); AID 651965, 2013; active = well fitted falling curve with a large enough effect; inconclusive = small, poorly fitted or top-dose-only effect; inactive = no such curve, though single readings can be large or run the other way; further: potency means the concentration at half of the fitted maximal effect; the source files actives as falling curves though it sought activators and does not explain the sign; nearly all actives have a fitted effect of over 65% in size; many hits overshoot -100%
Target sequence (P80244 whole entry, looked up): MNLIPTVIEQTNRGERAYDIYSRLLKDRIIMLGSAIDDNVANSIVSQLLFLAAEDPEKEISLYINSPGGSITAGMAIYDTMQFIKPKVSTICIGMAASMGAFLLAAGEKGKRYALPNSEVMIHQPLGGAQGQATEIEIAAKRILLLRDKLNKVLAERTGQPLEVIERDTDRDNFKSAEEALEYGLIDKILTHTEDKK
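FRET quenching reversal measured ClpP activation: 10 microg/mL B. subtilis ClpP at pH 8 with the FRET-FV decapeptide, read at 430 nm after 320 nm excitation. The 20-min minus 0-min signal was scaled between DMSO/no-enzyme wells and ADEP (5.8 microM final).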
TRPV1 potentiator: human TRPV1 potentiation; AID 540277; actives 0.02% (n = 320,000); potentiation, % at 8.33 µM; TRPV1-expressing cells, Fluo-8 calcium influx, capsaicin EC20 potentiation; host cell line not named in the record; control for the full effect not named in the record; active means potentiation above 80%; inconclusive means 30% to 80%; inactive means below 30%; further: 0% is about no effect
Target sequence (Q8NER1 whole entry, looked up): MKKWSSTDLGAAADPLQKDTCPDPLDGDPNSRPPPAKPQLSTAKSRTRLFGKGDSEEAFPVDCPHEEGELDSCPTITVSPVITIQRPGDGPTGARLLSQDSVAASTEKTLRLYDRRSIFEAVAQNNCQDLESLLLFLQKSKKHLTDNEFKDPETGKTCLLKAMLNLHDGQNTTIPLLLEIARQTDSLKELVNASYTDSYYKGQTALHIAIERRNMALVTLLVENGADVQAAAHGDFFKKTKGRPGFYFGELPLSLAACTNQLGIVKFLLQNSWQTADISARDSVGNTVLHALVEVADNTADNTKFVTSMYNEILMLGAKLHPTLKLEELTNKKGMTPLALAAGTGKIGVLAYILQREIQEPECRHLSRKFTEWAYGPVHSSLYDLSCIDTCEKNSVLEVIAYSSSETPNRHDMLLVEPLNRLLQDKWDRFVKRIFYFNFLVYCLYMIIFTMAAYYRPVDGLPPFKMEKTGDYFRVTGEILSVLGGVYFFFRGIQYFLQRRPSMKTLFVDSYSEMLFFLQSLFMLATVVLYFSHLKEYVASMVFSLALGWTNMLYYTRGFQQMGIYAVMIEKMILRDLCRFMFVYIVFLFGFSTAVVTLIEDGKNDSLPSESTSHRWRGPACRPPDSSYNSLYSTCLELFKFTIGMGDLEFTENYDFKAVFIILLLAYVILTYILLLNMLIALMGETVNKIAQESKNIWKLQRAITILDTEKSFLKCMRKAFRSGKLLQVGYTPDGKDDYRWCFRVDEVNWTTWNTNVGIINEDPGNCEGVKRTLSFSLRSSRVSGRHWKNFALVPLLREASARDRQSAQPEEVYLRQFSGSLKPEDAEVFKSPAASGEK
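TRPV1-expressing cells were cultured overnight at 35.5C and loaded with Fluo-8 calcium dye for 40 to 90 min at room temperature. After a 10 s baseline, compound was added and calcium influx was read kinetically for 3 min (ex 480/em 520 nm).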
* = called active by the depositor; ? = inconclusive; . = not tested or not shown; [ ] = remark or other dose.

The line under a structure holds: Menin MLL FP FL	Sfp inh	gsp antagonist	CtBP-E1A blk	gsp agonist	ClpP mod	TRPV1 potentiator
Cc1ccc(S(=O)(=O)Nc2ccccc2CNc2cccc(C)n2)cc1
    3.3	7%	-11%	-9	-59%[inhibitor]	-4.2%	-5
Cc1cc(C)c(C#N)c(SCCS(=O)(=O)Cc2ccc(Cl)cc2)n1
    4.4	-35%	22%	14	?	0.6%	11
O=C(Nc1ccc(N2CCOCC2)cc1)Nc1cnsn1
    1.4	28µM*	-20%	-7	-66%[inhibitor]	1.4%	1
Cc1cc(C)cc(N(CC(=O)NC2CCCC2)C(=O)CCC(=O)Nc2cc(C)ccn2)c1
    3.1	14%	10%	0	-4%[15.4 µM]	.	-3
Cc1cc(=O)oc2c(C)c(OC(C)C(=O)Nc3ccc(N4CCC(C)CC4)cc3)ccc12 (stereo not given)
    6.7	11%	-2%	-13	-48%	3.0%	-6
CCOC(=O)c1c(-c2ccccc2)csc1NC(=O)c1ccc(S(=O)(=O)N2CCOCC2)cc1
    1.1	11%	-3%	6	-10%[15.4 µM]	.	0
COc1ccc2ccccc2c1CN1CCSCC1
    0.5	?	-7%	-5	-3%	0.8%	-2
O=C(NCc1ccccc1)c1ccc(S(=O)(=O)Nc2cccc(C(F)(F)F)c2)cc1
    -0.1	23%	-8%	-10	26%	-0.3%	-9
O=C1CC2CCCN2C=C1I (stereo not given)
    .	.	5%	3	.	-4.5%	.
Cc1cccc(C(=O)NCC(=O)Nc2ccc(S(=O)(=O)Nc3nc(C)cc(C)n3)cc2)c1
    -2.1	9%	5%	.	-24%	0.0%	?
CN(C(=O)c1cccc(NC(=O)c2ccccc2)c1)C1CCCCC1
    .	9%	5%	-1	?	-0.2%	-13
CCN1C(=O)S/C(=C/c2cn(C)c3ccccc23)C1=O
    -1.9	5%	9%	.	-39%[inhibitor]	1.7%	5
O=C(N=Nc1c(O)[nH]c2ccc(F)cc12)c1ccc(NS(=O)(=O)c2cccs2)cc1
    .	.	-7%	-27	?	0.1%	-9
COc1ccc(-c2cnnc(N/N=C/c3ccc(OC)c(OC)c3)n2)cc1
    3.6	-13%	2%	-1	-5%[15.4 µM]	1.5%	-20
C=CCCN([C@H](CO)Cc1ccccc1)S(=O)(=O)c1ccccc1Br
    .	.	-1%	4	.	-5.7%	.

The line under a structure holds: Menin MLL FP FL	Sfp inh	gsp antagonist	CtBP-E1A blk	gsp agonist	ClpP mod	TRPV1 potentiator
Cc1ccnc(SCCn2c(N3CCOCC3)nc3c2c(=O)[nH]c(=O)n3C)n1
    .	.	8%	-3	-7%	1.0%	.
O=C1[C@H]2[C@@H](c3ccc(F)cc3)N3C(=O)N(c4ccc(C(F)(F)F)cc4)C(=O)[C@@]3(Cc3ccccc3)[C@H]2C(=O)N1C1CCCCC1
    .	.	-8%	-4	.	2.2%	4
Cc1cc(C)n(-c2ccc(C(=O)O)cc2[N+](=O)[O-])n1
    -4.3	17%	10%	2	0%	.	-3
Oc1ccccc1C1OCC2(CO1)COC(c1ccccc1O)OC2 (stereo not given)
    .	9%	1%	0	0%[15.4 µM]	1.7%	-1
CCCS(=O)(=O)N1CCC(C(=O)NCCc2ccccc2)CC1
    0.3	12%	11%	5	-23%	0.9%	-2
CN(C)CC1CCCCC1OC(=O)/C=C/c1ccc(Cl)cc1Cl (stereo not given)
    -0.8	-22%	12%	-9	10%[15.4 µM]	-0.1%	6
CCOC(=O)c1c(C)[nH]c(C(=O)COC(=O)C2CC2C)c1C (stereo not given)
    -1.6	14%	5%	6	-21%	-0.7%	2
O=C(NCCN1CCN(c2ccccc2)CC1)C1CCN(S(=O)(=O)c2cccs2)CC1
    2.8	15%	1%	3	8%	-2.4%	4
Cc1ccc(C(=O)NCC(=O)NC2CCC(C)CC2)s1 (stereo not given)
    .	.	6%	11	-28%	-0.2%	8
CCCN(CC(=O)NC(=O)NC1CCCCC1)CC(=O)Nc1cc(Cl)ccc1Cl
    .	.	-6%	2	11%	1.2%	-3
COc1ccc(C(CCNC(C)c2ccccc2)c2ccc(F)cc2)cc1 (stereo not given)
    5.2	?	3%	9	0%	-2.2%	-6
O=C(c1cc2cc(F)ccc2[nH]1)N1CCC(Cc2ccccc2)CC1
    3.1	-1%	1%	-4	-6%	.	8
CN(C)c1ccc(/C=N\Nc2ccccn2)cc1
    -1.0	-6%	-6%	-28	14%[15.4 µM]	-1.1%	-21
Cc1ccc(NC2CCCN(C(=O)c3cccc(-c4ncc[nH]4)c3)C2)cc1C (stereo not given)
    .	5%	-21%	-30	?	0.0%	3
COc1ccc(Cl)cc1NC(=O)CSc1nnc(C)c(=O)n1N
    .	15%	2%	0	-1%	-0.3%	5

The line under a structure holds: Menin MLL FP FL	Sfp inh	gsp antagonist	CtBP-E1A blk	gsp agonist	ClpP mod	TRPV1 potentiator
Cc1cccc(NC(=O)CN(c2ccc(C(C)C)cc2)S(=O)(=O)c2c(C)nn(C)c2C)n1
    -1.3	8%	-15%	3	0%	-0.2%	24
CN(Cc1ccno1)C(=O)CC1C(=O)NCCN1CC(c1ccccc1)c1ccccc1 (stereo not given)
    2.1	1%	1%	11	0%	.	8
NC(=O)c1cccc2c3c([nH]c12)CCCC3
    0.7	22%	7%	-7	-7%	3.7%	5
C[C@@H]1CN([C@H](C)CO)C(=O)CCCn2nncc2CO[C@H]1CN(C)Cc1ccc(C(=O)O)cc1
    .	.	.	3	26%	0.5%	.
COc1ccc(CC(=O)NCCc2ccc(OC)c(OC)c2)cc1
    4.3	1%	12%	5	-42%[inhibitor]	.	23
O=C(N/C(=C\c1ccc(Br)cc1)C(=O)N1CCCC1)c1ccccc1F
    -2.1	-10%	5%	-7	9%[15.4 µM]	-0.5%	-6
O=C(NCCc1nnc2ccc(N3CCCCCC3)nn12)c1ccccc1F
    .	.	12%	2	2%[15.4 µM]	-4.4%	.
C=CCn1c(SCC(=O)NC2CC2)nc2sc(CC)cc2c1=O
    -0.7	17%	-8%	.	19%	-1.8%	0
CCOC(=O)c1cnn(-c2ccccc2)c1-n1cccc1C(=O)C(=O)Nc1ccccc1
    2.3	-1%	-10%	-9	4%	0.6%	19
CC(C)CCOc1cccc(OCC(=O)Nc2ccncc2)c1
    -1.0	11%	-8%	2	-18%	.	-11
Cc1nc(N2CCCCC2)sc1C(=O)c1ccc(SCCO)c([N+](=O)[O-])c1
    0.1	-26%	?	-23	5%[15.4 µM]	.	-3
O=S(=O)(NCC1CCCO1)c1ccc(S(=O)(=O)N(Cc2ccc(F)cc2)C2CCCCC2)cc1 (stereo not given)
    .	.	-8%	-2	-24%	-2.0%	.
COc1ccc(-n2c(C(C)n3nc(C)c([N+](=O)[O-])c3C)n[nH]c2=S)cc1 (stereo not given)
    -2.4	0%	5%	2	11%	0.9%	-10
O=C(Cc1cccs1)Nc1cccc(-c2ccc3nncn3n2)c1
    0.4	7%	-3%	-9	-15%	.	85*
CCOC(=O)c1c(C)[nH]c(C(=O)N/N=C/c2ccc(Br)cc2)c1C
    2.7	-1%	9%	-6	-14%	-3.9%	9

The line under a structure holds: Menin MLL FP FL	Sfp inh	gsp antagonist	CtBP-E1A blk	gsp agonist	ClpP mod	TRPV1 potentiator
CCc1cc(C(=O)N/N=C/c2ccc(O)cc2O)c2ccccc2n1
    .	23%	12%	-97*	-3%	0.3%	-31
CC(=O)Nc1ccc(SCCN2CC[C@@H](C)CCC2=O)cc1
    .	.	-5%	-3	30%	-0.2%	-4
[O-][N+]1=C2CCC/C(=N\O)C2=NC12CCCCC2
    1.7	0%	3%	3	-57%[inhibitor]	-0.2%	.
CC(=O)Nc1ccc(S(=O)(=O)Nc2nnc(CC(C)(C)C)s2)cc1
    4.2	4%	19%	-17	-27%[15.4 µM]	-0.4%	0
CC1(C)CC(=O)C2=C(C1)Nc1ccccc1NC2c1ccccn1 (stereo not given)
    5.7	8%	6%	2	-5%	-1.2%	-11
CN(C)NC(=O)c1csnc1-c1c(Cl)cccc1Cl
    5.3	1%	8%	4	17%	.	5
CC(c1ccc(F)cc1)n1cc(C(=O)NCCN(C)C)nn1 (stereo not given)
    -0.9	17%	12%	3	?	0.8%	5
CCCC1(C(=O)OCC)NC(c2ccc(N(C)C)cc2)C2C(=O)N(c3ccc(F)cc3)C(=O)C21 (stereo not given)
    0.4	16%	-8%	-20	-30%	-0.7%	?
CCOC(=O)C1CCCN(C(=O)c2cc3ncc(Br)cn3n2)C1 (stereo not given)
    -7.4	3%	5%	2	?	0.5%	0
CC(C)OC(=O)C(NC(=O)c1ccccc1)=C1CCCCC1
    1.5	-12%	1%	7	-39%[inhibitor]	1.4%	3
CCN1CCN(c2oc(-c3ccc([N+](=O)[O-])cc3)nc2C#N)CC1
    2.3	12%	8%	8	2%[15.4 µM]	.	?
C[C@H]1CN([C@@H](C)CO)C(=O)c2cccc(NC(=O)Nc3ccc(C(F)(F)F)cc3)c2O[C@@H]1CN(C)S(=O)(=O)c1ccc(Cl)cc1
    .	.	-6%	-6	-20%	1.6%	.
Cc1ccc(N(CC(=O)N2CCCCCC2)S(C)(=O)=O)cc1
    .	.	.	0	-14%	-0.9%	.
CCCc1nc2oc3ccccc3c(=O)c2c(=O)n1CCCOC
    11	-4%	-7%	8	-5%[15.4 µM]	.	.
CCOC(=O)C1CCN(Cc2cccc(Oc3ccccc3)c2)CC1
    1.3	-24%	5%	.	-15%	0.5%	-36

The line under a structure holds: Menin MLL FP FL	Sfp inh	gsp antagonist	CtBP-E1A blk	gsp agonist	ClpP mod	TRPV1 potentiator
Cc1ccc(S(=O)(=O)N2CCN(C(=O)c3ccc(S(=O)(=O)N4CCCC4)cc3)CC2)cc1
    2.1	3%	-4%	-2	4%	-0.3%	2
O=C(CSc1nc2ccccc2s1)Nc1ccc2c(c1)OCO2
    4.5	5%	-16%	.	-86%[inhibitor]	-2.1%	5
Nc1[nH][nH]c(=O)c1N=Nc1cccc(Cl)c1
    -2.9	5%	.	-11	3%[15.4 µM]	.	6
CN(Cc1ccc(-n2cccn2)cc1)C(=O)c1cnn2c1NC(c1ccco1)CC2C(F)(F)F (stereo not given)
    ?	20µM*	32µM*	3	0%	-0.3%	11
O=C(Nc1cccs1)Nc1ccc(Br)cc1F
    -1.7	15%	-10%	4	-6%[15.4 µM]	0.4%	?
O=C(COC(=O)c1cnccn1)c1ccc(-c2ccccc2)cc1
    .	.	-3%	3	-6%	-4.8%	16
